Compound activity: PubChem, National Center for Advancing Translational Sciences (NCATS)
VDR inhibitor = vitamin D3 receptor (human) inhibition; AID 504847; VDR-SRC2-3 peptide fluorescence polarization, 2 h; Potency, µM, without a hit: max response, negative = inhibition, hits mostly inhibitors; P11473; hit rate 0.93% among 400,000; active = well fitted inhibition curve with a large enough effect; inconclusive = small, poorly fitted or top-dose-only effect, or another doubt; inactive = no such curve, though single readings can be large or run the other way; note: series mostly up to about 120 µM
Target sequence (P11473 whole entry, looked up): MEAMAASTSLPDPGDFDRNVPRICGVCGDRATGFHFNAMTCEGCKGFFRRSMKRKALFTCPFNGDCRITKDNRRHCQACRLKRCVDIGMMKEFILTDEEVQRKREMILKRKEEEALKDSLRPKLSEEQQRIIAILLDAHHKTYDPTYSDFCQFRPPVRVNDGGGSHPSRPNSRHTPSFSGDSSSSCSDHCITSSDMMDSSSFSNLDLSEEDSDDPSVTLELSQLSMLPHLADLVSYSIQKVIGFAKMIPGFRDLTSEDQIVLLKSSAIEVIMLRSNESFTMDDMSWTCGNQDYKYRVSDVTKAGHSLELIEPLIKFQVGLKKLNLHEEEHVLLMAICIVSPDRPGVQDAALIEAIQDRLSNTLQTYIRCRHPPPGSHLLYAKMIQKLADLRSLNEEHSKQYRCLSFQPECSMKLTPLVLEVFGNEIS
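VDR–SRC2-3 interaction, FP format. Cmpds 23 nl via pintool, brief spin, 2 h ambient incubation.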
* hit, by the source's call; ? = inconclusive; & = joins results of further samples; [ ] = remark or other dose. % is set by controls: 0 for no effect and ±100 for the full control effect; potency is the fitted concentration of half-maximal effect. An excerpt. The share of hits here may be higher or lower than overall.

SMILES | VDR inhibitor
C=CCC(C=C)S(=O)(=O)c1ccc(C)cc1 (configuration not stated) | -1.9%
CCc1cccc(NC(=O)CC(c2ccc(OC)cc2)N2Cc3ccccc3C2=O)c1 (configuration not stated) | 10.4%
COc1ccc(CCNC(=O)c2cccc([N+](=O)[O-])c2)cc1OC | 14.0%
Cc1ccc(-c2nnc(N3CCCCC3)c3ccccc23)cc1 | -10.3%
Cc1ccc(NC(=O)C2CC(O)CN2C(=O)OCc2ccccc2)c(C)c1 (configuration not stated) | -8.8%
C=CCc1ccc(OCCCCN2CC(C)OC(C)C2)c(OC)c1 (configuration not stated) | -3.9%
Cc1ccsc1C(=O)NNC(=O)COc1ccccc1Cl | 0.8%
CCCN(CC(=O)Nc1cc(C)on1)S(=O)(=O)c1cccc(C(F)(F)F)c1 | -1.0%
CC1=Nc2ccccc2NC(=O)C1Sc1nnc(C)s1 (configuration not stated) | 3.7%
Cc1ccc(NC(=O)c2ccc(NCc3ccco3)c([N+](=O)[O-])c2)cc1Cl | 7.0%
Cc1ccc(S(=O)(=O)Nc2c(C)nn(C)c2C)cc1 | 19.1%
CC(=O)Nc1cccc(OC(=O)c2ccoc2C)c1 | 17.3%
CCOC(=O)CCNc1n[nH]c(=O)[nH]c1=O | 0.7%
Cc1cc(C)nc(/N=c2/ssnc2Cl)c1 | 28.2µM*
COc1ccc(-n2c(/C=C/c3c(C)[nH]c4ccccc34)nc3ccccc3c2=O)cc1 | -7.2%
COc1ccc(OC)c(NC(=O)c2cc(S(=O)(=O)N3CCCCC3)c[nH]2)c1 | 1.3%
CCOc1ccc(NC(=O)CSc2oc(-c3ccc(F)cc3)nc2S(=O)(=O)c2ccc(C)cc2)cc1 | -9.8%
O=C(NCc1ccccc1)c1c[nH]c2ccc(F)cc2c1=O | -8.7%
Cc1ccc(CNC(=O)C2CC(c3cccc([N+](=O)[O-])c3)=NO2)cc1 (configuration not stated) | -23.8%
COc1ccccc1C(=O)n1nc(-c2ccco2)nc1SC | -8.7%
COc1ccc(/C=N/NC(=O)OC(C)(C)C)cc1OC | -0.4%
CC1(C)CC(=O)C2=C(C1)N(Cc1ccco1)C(=O)C2(NC(=O)c1ccc(Cl)cc1Cl)C(F)(F)F (configuration not stated) | 4.2%
Cc1cc(/C=C(\C#N)c2nc3ccccc3[nH]2)c(C)n1C | -23.0%
CCCCOc1ccc(C2(C)NC(=O)NC2=O)cc1 (configuration not stated) | 25.1µM*
CCOc1ccc(CCNC(=O)c2sc3nc4n(c(=O)c3c2C)CCC4)cc1OCC | 10.3%
The list goes on.
SMILES | VDR inhibitor
Cc1ccc(NC2=NCCCCC2)cc1 | -16.7%
O=C(NCCc1ccc(Cl)cc1)c1ccc2c(c1)N(Cc1ccccc1F)C(=O)c1ccccc1S2(=O)=O | -11.0%
Cc1oc2ncn(C)c(=O)c2c1C(=O)N1CCN(c2cccc(C(F)(F)F)c2)CC1 | 1.2%
CCOC(=O)c1ccc(NC(=O)Nn2cnnc2)cc1 | -9.5%
CCc1n[n+](CC(=O)c2ccccc2)c(N)s1 | -14.2%
CC(C)Cc1nc2sc3c(=O)[nH]cnc3c2c2c1CCCC2 | 9.8%
CCCCCN1C(=O)Cn2c(nc3ccccc3c2=O)C1C (configuration not stated) | -4.8%
CC(=O)NC1(C(F)(F)F)C(=O)N(Cc2ccccc2)C2=C1C(=O)CC(C)(C)C2 (configuration not stated) | 9.9%
O=C(c1cc(=O)c2ccccc2o1)N1CCN(c2cccc(Cl)c2)CC1 | -0.8%
CCc1cc(C(=O)OCC(=O)N2CCC(c3ccccc3)=N2)sc1C | 6.7%
CCC(=O)N1CCc2cc(Br)cc(S(=O)(=O)CCC(=O)NCc3ccc(Cl)cc3)c21 | -1.9%
O=S(=O)(NCC(c1ccco1)N1CCN(c2ccc(F)cc2)CC1)c1ccccc1 (configuration not stated) | 9.8%
C=CCSc1nnc(NC(=O)c2ccc(Cl)nc2)s1 | -17.3%
Cn1c(=O)n(C)c2cc(/C=C3/SC(=O)N(CC(=O)N4CCOCC4)C3=O)ccc21 | -20.8%
O=c1c(Cl)c(N/N=C/c2ccc(Br)cc2)cnn1-c1ccccc1 | 10.9%
Cc1ccc(CSc2nnc(CCNC(=O)OC(C)(C)C)o2)cc1 | -13.1%&6.9%
CCOC(=O)N1CCN(c2ncc(C(F)(F)F)cc2Cl)CC1 | -5.4%
COCCN(Cc1cc2cc(C)ccc2[nH]c1=O)S(=O)(=O)c1ccc(Cl)cc1 | 1.8%
Nc1ccc2c(c1Cl)C(=O)c1ccc(N)c(Cl)c1C2=O | -10.1%
COc1ccccc1Nc1nc(N)nc(N)c1S(=O)(=O)c1ccccc1 | 15.2%
CC(=O)Nc1ccc(N2C(=O)CC(Sc3nc(C)cc(C)n3)C2=O)cc1 (configuration not stated) | -6.4%
N#CC1=C(N)Oc2n[nH]c(-c3ccncc3)c2C1c1ccsc1 (configuration not stated) | 2.0%
O=C(NCc1ccccc1)c1ccc(NC2=NC3CS(=O)(=O)CC3S2)cc1 (configuration not stated) | -1.6%
Cc1cc(Nc2nc3ccccc3nc2Cl)n(-c2ccc([N+](=O)[O-])cc2)n1 | 2.4%
COc1ccc(CN2CCN(C(=O)CC(C)C)CC2)cc1OC | 9.9%
Remaining list, next part.
SMILES | VDR inhibitor
CCCCOP(=O)(c1ccc(N(C)C)cc1)C(O)c1ccncc1 (configuration not stated) | -9.1%
CN(C)C(=O)C(Sc1ccc(S(=O)(=O)N2CCCC2)cn1)c1ccccc1 (configuration not stated) | -24.9%
CNC(=S)N1N=C(c2ccccc2)CC1c1ccc(OC)c(OC)c1 (configuration not stated) | -7.4%
CCOc1ccc(NC(=O)c2cccc3c2C(=O)N(CC2CCCO2)C3)cc1 (configuration not stated) | -3.2%
COc1cc(C2C(C#N)=C(N)Oc3cc(C)n(CCc4ccccc4)c(=O)c32)cc2c1OCO2 (configuration not stated) | 2.3%
CCCCSc1nnc(-c2ccc(NC(=O)CCc3ccccc3)cc2)n1C | 1.4%
CC(=O)N1CCN(C(=O)C(Cc2ccccc2)NC(=O)c2ccccc2)CC1 (configuration not stated) | -9.5%
CCN(CC)CCCNS(=O)(=O)c1ccc(OC)cc1 | 13.4%
NC(=O)Nc1ccc(C(=O)OCC(=O)NCc2ccc3c(c2)OCO3)cc1 | -5.9%
COc1cc2c(cc1OC)C(C(=O)NCc1ccco1)C1c3ccccc3CCN1C2=O (configuration not stated) | -1.3%
Cc1ccc(Cl)cc1NC(=O)c1oc2ccc(S(=O)(=O)N3CCCCC3)cc2c1C | -4.4%
Cn1c(CNC(=O)c2ccco2)nnc1SCC(=O)Nc1ccc(Br)cc1F | -0.7%
O=C(N/N=C/c1cc(Br)c(O)c([N+](=O)[O-])c1)C(O)(c1ccccc1)c1ccccc1 | -18.1%
C[C@H](NC(=O)Cc1cc(F)cc(F)c1)C(=O)N[C@@H](C(=O)OC(C)(C)C)c1ccccc1 | -0.9%
CCc1nnc(NC(=O)c2cccc(OC)c2)s1 | 12.2%
COc1ccc(N2CCN(S(=O)(=O)c3ccc(C(=O)NCc4ccco4)cc3)CC2)cc1 | 10.5%
Cc1ccc(S(=O)(=O)N2CCN(C(=O)COC(=O)c3c(C)cc(C)cc3C)CC2)c(C)c1 | -11.5%
CCC(C)NC(=O)CN(c1ccc(OC)cc1)S(=O)(=O)c1ccc(NC(C)=O)cc1 (configuration not stated) | 16.5%
COc1cc(OC)cc(-c2c(C#Cc3ccsc3)c3cc(-c4cc(OC)c(OC)c(OC)c4)ccc3n2C)c1 | 5.0%
COc1ccc(NC(=O)C(=O)NCCc2csc3nc(-c4ccccc4F)nn23)cc1OC | 7.2%
COc1ccc(NC(=O)NCc2cccnc2)c(OC)c1 | -3.8%
N=c1n(CCN2CCCCC2)c2ccccc2n1CC(=O)c1cccs1 | -0.6%
COc1ccc(C2OCC3(CO2)SC(=O)NC3=O)cc1OC (configuration not stated) | 9.2%
COc1ccc(CNC(=O)C(c2ccc(C)o2)N(C(=O)c2snc(C(N)=O)c2N)c2ccccc2OC)cc1 (configuration not stated) | 5.3%
O=S(=O)(c1ccccc1)c1nc(-c2ccccc2Cl)oc1NCCN1CCOCC1 | -11.1%
Other structures.
SMILES | VDR inhibitor
Cc1nc2cc(NC(=O)Nc3nccs3)ccc2n1C | -1.2%
C=C[C@]1(C)C=C2CC[C@H]3[C@@](C)(CCC[C@@]3(C)C(=O)O)[C@@H]2CC1 | -7.9%
CCCCOc1ccc(CNC(=O)c2ccc(NC(=O)N3CCCCc4ccccc43)cc2)cc1 | 1.4%
CC1CC(C)CN(C(=O)Cn2nnc(-c3ccccc3)n2)C1 (configuration not stated) | 10.2%
CCCCn1c(N)c(N(CCOC)C(=O)CCNC(=O)NC23CC4CC(CC(C4)C2)C3)c(=O)[nH]c1=O | -15.0%
Cc1ccc(C)c(NC(=O)Cn2cc(C(=O)C3CC3)c3ccccc32)c1 | -7.3%
Cc1ccccc1NCC(=O)N/N=C\c1ccc2c(c1)OCO2 | 7.1%
Cc1ccc(C(=O)NNC(=O)C2CCN(c3ncccn3)CC2)cc1 | -3.6%
Cc1ccc(-n2nnnc2SCC(=O)Nc2ncc(Cc3ccccc3Cl)s2)cc1 | ?
COc1ccccc1N1CCN(C(=O)c2cnn(C(C)(C)C)c2C2CCN(C(=O)OC(C)(C)C)CC2)CC1 | 6.5%
NS(=O)(=O)c1ccc(Cl)cc1[N+](=O)[O-] | 1.7%
Cc1ccc(OCCNC(=O)Cc2ccc(S(=O)(=O)N3CCOCC3)s2)cc1 | 10.4%
CCc1ccc(NC(=O)CCCN2C(=S)NC(C)(C)CC2C)cc1 (configuration not stated) | -8.1%
CSc1ccccc1NC(=O)CSc1nnc(Cc2ccccc2)o1 | 8.9%
NC(=O)C1=C[C@H](c2ccccc2)C[C@H](OCc2ccc(CO)cc2)O1 | 0.3%
COc1cccc(C(=O)N/N=C/c2ccc(Oc3ccc([N+](=O)[O-])cn3)c(OC)c2)c1 | 1.0%
Cc1cccc(/C=N/NC(=O)c2cc(-c3cccnc3)nc3c2c(C)nn3-c2ccccc2)c1 | -5.7%
CCOC(=O)c1c(N)sc(N)c1C(=O)OCC | 8.91µM*
CC(C)(C)NC(=O)CN(C(=O)CCC(=O)Nc1nccs1)c1ccc(F)c(Cl)c1 | -8.0%
Brc1ccccc1/C=N/Nc1ccc2ccccc2n1 | -7.2%
CC(C)(C)NC(=O)COC(=O)c1ccccc1Oc1ccccc1 | 21.3%
Cc1nn(-c2ccccc2)c(Cl)c1C(=O)Nc1nnc(C2CCCC2)s1 | 7.3%
COCc1c(C(=O)OCC(=O)c2c(N)n(CC(C)C)c(=O)n(C)c2=O)oc2ccccc12 | 17.8%
COc1ccc(NS(=O)(=O)c2ccc(N3CCOCC3)c(NC(=O)c3ccc(F)cc3)c2)cc1 | -18.8%
CC[C@]12c3[nH]c4ccccc4c3CCN1C(=O)C(CC(=O)NCc1cccc(C(F)(F)F)c1)C[C@@H]2C(=O)N1CCN(C(=O)C2CC2)CC1 (some centres not stated) | -17.6%

Rewritten as tab-separated lines: 2 of the compounds above.
SMILES	VDR inhibitor
Cc1nc2cc(NC(=O)Nc3nccs3)ccc2n1C	-1.2%
C=C[C@]1(C)C=C2CC[C@H]3[C@@](C)(CCC[C@@]3(C)C(=O)O)[C@@H]2CC1	-7.9%

Among those listed so far, these contain a thiophene ring, fused or not.
SMILES | VDR inhibitor
Cc1ccsc1C(=O)NNC(=O)COc1ccccc1Cl | 0.8%
CCOc1ccc(CCNC(=O)c2sc3nc4n(c(=O)c3c2C)CCC4)cc1OCC | 10.3%
CC(C)Cc1nc2sc3c(=O)[nH]cnc3c2c2c1CCCC2 | 9.8%
CCc1cc(C(=O)OCC(=O)N2CCC(c3ccccc3)=N2)sc1C | 6.7%
N#CC1=C(N)Oc2n[nH]c(-c3ccncc3)c2C1c1ccsc1 (configuration not stated) | 2.0%
COc1cc(OC)cc(-c2c(C#Cc3ccsc3)c3cc(-c4cc(OC)c(OC)c(OC)c4)ccc3n2C)c1 | 5.0%
N=c1n(CCN2CCCCC2)c2ccccc2n1CC(=O)c1cccs1 | -0.6%
Cc1ccc(OCCNC(=O)Cc2ccc(S(=O)(=O)N3CCOCC3)s2)cc1 | 10.4%
CCOC(=O)c1c(N)sc(N)c1C(=O)OCC | 8.91µM*

The list goes on:
SMILES | VDR inhibitor
CN(C)c1ccc(NC(=O)CSc2nc3c(c(=O)[nH]2)CCCC3)cc1 | 9.3%
CCOC(=O)c1c(/N=C/C2=C(O)CC(C)(C)CC2=O)sc(C)c1C | -5.3%
Oc1c(Cl)cc(Cl)c(Cl)c1Cc1c(O)c(Cl)cc(Cl)c1Cl | 44.7µM*
O=C(NN1CCOCC1)c1ccc(Cl)c([N+](=O)[O-])c1 | 121.6%[activator]
COc1ccc(S(=O)(=O)N(C)c2ccc(C(=O)N3CCCCC3)cc2)cc1OC | 2.6%
O=C(CCSCc1cccc(Cl)c1)NCCC1=CCCCC1 | 10.3%
O=C(CSc1ncnc2sccc12)Nc1ccc(S(=O)(=O)N2CCOCC2)cc1 | -7.4%
COc1ccccc1CNC(=O)Cc1csc2nc(-c3ccc(F)cc3)cn12 | 15.5%
CCCCC(=O)Nc1ccc2c(c1)nc(CCN1CCN(c3ccccn3)CC1)n2C | 6.7%
O=C1CC2C(=O)NCCN2C(=NC(=O)c2ccc(Cl)cc2)N1 (configuration not stated) | ?
C[C@@]12C(=O)N(Cc3ccccc3)CC(=O)N1[C@H](/C=C/c1ccccc1)[C@@H]1C(=O)N(c3ccccc3)C(=O)[C@@H]12 | 1.8%
CN(C)CC/C=C1\c2ccccc2CSc2ccccc21 | -2.1%&-3.3%
COc1ccc2cc(CCNC(=O)C3CCCC3)c(=O)[nH]c2c1 | 5.1%
COc1ccc(NC(=O)c2ccc(S(=O)(=O)N3CCCCCC3)cc2)c(OC)c1 | 13.6%
Nc1cc(=O)[nH]c(SCC(=O)Nc2ccc(N3CCOCC3)cc2)n1 | 4.6%
O=C(Nc1cccc2ccccc12)c1cc2c(cc1Br)OCO2 | -5.5%
COc1ccc(CNC(=O)CS(=O)Cc2nc(-c3ccccc3C)oc2C)cc1 (configuration not stated) | -11.2%
